A1 inh: inhibitors of the anti-apoptotic protein A1, read as caspase activation. MEF A1-2A-BIM cells, Caspase-Glo 3/7 luminescence, 3 h; percent of clofoctol response, vehicle zero. actives 0.066% (n = 330,000). caspase activation, % (no concentration beside the values);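 active means over half of replicate activation scores above 10%, or exactly half above 10 with the replicate mean above 10; inconclusive means replicate mean below 10 yet half the replicates above 10; inactive means over half of replicates below 10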;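 further: wells of about 30 µL received 50 nL stock; many hits fall short of the cut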
HNF4A DNA FP: change in binding of human HNF4 alpha to DNA; HNF4a-FITC DNA binding, fluorescence polarization, 1 h; actives 0.3% (n = 360,000); activity change, % at 10 µM; AID 1224865; in the data active means activity change above about 30%, passing the limit was not always enough;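 further: controls were the assay level and a saturating level of protein; the project sought stronger binding though the title names inhibitors; some compounds called inactive have numbers as strong as hits; positive values seem to mean higher polarization but the record does not say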
Target sequence (P41235 whole entry, looked up): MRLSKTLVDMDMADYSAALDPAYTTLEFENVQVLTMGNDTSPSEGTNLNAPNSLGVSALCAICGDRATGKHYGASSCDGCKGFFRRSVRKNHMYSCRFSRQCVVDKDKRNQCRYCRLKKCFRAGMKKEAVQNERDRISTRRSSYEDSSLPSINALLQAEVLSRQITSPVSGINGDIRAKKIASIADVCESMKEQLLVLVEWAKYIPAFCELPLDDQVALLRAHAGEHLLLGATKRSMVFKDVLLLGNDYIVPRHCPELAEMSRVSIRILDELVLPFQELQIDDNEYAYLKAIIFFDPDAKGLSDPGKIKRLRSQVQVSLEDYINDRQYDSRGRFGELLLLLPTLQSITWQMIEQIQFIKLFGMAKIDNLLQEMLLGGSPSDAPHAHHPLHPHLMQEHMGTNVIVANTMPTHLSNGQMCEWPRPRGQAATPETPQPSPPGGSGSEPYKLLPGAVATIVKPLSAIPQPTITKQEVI
LANA-H2B inh: blocks KSHV LANA binding to histone H2A/H2B. Q9QR71. cell-free LANA-H2A/H2B peptide, fluorescence polarization. inhibition, % (no concentration beside the values). actives 0.6% (n = 320,000); in the data active means inhibition mostly above about 10%, no sharp cut-off; inactive means mostly below about 6.7%;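 further: stock transfer was 7.5 nL into about 10 µL; 0% = median of vehicle wells and 100% = median of positive control wells; one replicate is shown; the record names a cut of 25% in any replicate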
Vif TR-FRET: HIV-1 Vif–A3G interaction blockers – biochemical, TR-FRET, GST-Vif 1-94, biotin-A3G peptide, dose response retest, primary screen (AID 1117319); TR-FRET GST-Vif / biotin-A3G peptide binding; higher % means a stronger effect; test concentration not given here; strong numbers were not always called active; one-dose inhibition, %; IC50 in µM for titrated hits; actives 0.57% (n = 260,000);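 active means above the screen mean plus three standard deviations and confirmed in dose response; inconclusive means results disagree or hit not tested in dose response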;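 further: Vif residues 1-94 fused to GST binding biotinylated APOBEC3G peptide 110-148; 0% = full assay without inhibitor and 100% = GST in place of GST-Vif; retest series ran down from 100 µM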
UCH37 inh: human UCH37 deubiquitinating enzyme inhibition. Q9Y5K5. purified proteasome/UCH37, Ub-AMC cleavage fluorescence. inhibition, % (no concentration beside the values). actives 0.33% (n = 330,000). AID 588478;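 active means mean of two replicates above 20%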;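 further: 0% = compound-free wells with enzyme and 100% = wells lacking proteasome; stock transfer was 100 nL into about 20 µL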
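Signal – fluorescence, ex 355 nm, em 460 nm · System – Proteasome-bound UCH37 · Input – 0.15 nM proteasome as dispensed · Timing – 30 min preincubation with enzyme, 25 min cleavage at room temperature · Read-out basis – percent inhibition of cleavage signal versus uninhibited and no-proteasome wells · Medium – Tris-HCl pH 7.4 with ATP-MgCl2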
Beta2AR agonist: activates human beta-2 adrenergic receptor causing internalization; P07550; AID 504454; response, % (test concentration not listed); Am2.2-beta2AR cells, FAP receptor internalization, flow cytometry; reference of the scale not given here; actives 0.43% (n = 340,000);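 active means response above a set limit, near 3 SD of response in nonfluorescent compounds, cut at about 42% in these data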;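 further: stock transfer was 100 nL into about 11 µL; a reference agonist was the positive control; negative values mostly stem from fluorescent compounds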
Target sequence (P07550 whole entry, looked up): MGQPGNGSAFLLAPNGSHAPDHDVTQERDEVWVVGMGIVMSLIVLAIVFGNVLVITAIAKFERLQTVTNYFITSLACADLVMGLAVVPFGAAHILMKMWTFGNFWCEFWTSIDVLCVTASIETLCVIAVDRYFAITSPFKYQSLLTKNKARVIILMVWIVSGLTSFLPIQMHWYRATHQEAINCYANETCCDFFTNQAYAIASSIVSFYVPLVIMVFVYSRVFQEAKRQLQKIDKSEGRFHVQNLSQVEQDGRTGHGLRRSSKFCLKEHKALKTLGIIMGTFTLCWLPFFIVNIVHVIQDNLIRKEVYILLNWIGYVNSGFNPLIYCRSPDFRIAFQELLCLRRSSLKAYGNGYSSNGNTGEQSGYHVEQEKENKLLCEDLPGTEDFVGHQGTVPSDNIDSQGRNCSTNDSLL
Ecoli growth: inhibitors of Escherichia coli growth. OD600, 23 h; stronger effect = lower value. OD600 absorbance (test concentration not listed). actives 0.21% (n = 330,000). AID 1053175;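 active means OD600 absorbance below the run mean of sample wells minus 3.6 SD, in any replicate, cut at about 0.56 in these data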;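 further: stock transfer was 300 nL into about 60 µL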
Numbers without * were called inactive; i = inactive; u = inconclusive; x = not tested or not shown.

Structure	Vif TR-FRET	HNF4A DNA FP	Beta2AR agonist	UCH37 inh	Ecoli growth	LANA-H2B inh	A1 inh
Cc1ccc(Oc2ccc3c(c2)C(=O)N(c2cccc4cccnc24)C3=O)cc1	3%	-2.3	-2	1.4	0.69	-1.6	-0.9
Oc1ccc(Br)cc1CN1CCCCCCC1	5%	1.8	4	3.5	0.69	-5.2	-0.4
COc1ccc2c(CCNC(=O)c3ccco3)c[nH]c2c1	15%	0.9	-15	2.3	0.63	1.7	-0.1
CC(C)c1onc(C(=O)N2CCCCCC2)c1[N+](=O)[O-]	-9%	-0.4	7	x	x	33*	-0.4
N#C/C(=C\c1c(N2CCCCCC2)nc2ccccn2c1=O)C(N)=O	1%	1.9	-14	9.5	0.67	-3.7	2.3
C=CC[C@]12C=C(OC)C(=O)C=C1O[C@@H](c1ccc3c(c1)OCO3)[C@H]2C	x	-0.6	-9	2.7	0.69	-1.7	-0.3
O=C(NNS(=O)(=O)Cc1ccccc1)c1ccc([N+](=O)[O-])cc1	x	1.1	-5	6.3	0.69	-4.1	1.0
COc1ccc(-c2csc(Cc3nnc4n3CCCCC4)n2)cc1	3%	-0.6	-13	1.7	0.64	-4.7	1.0
CCc1nnc(NC(=O)Cc2cccs2)s1	25%	-6.7	7	2.5	0.72	2.0	0.2
CCCCOc1ccc(N2C(=O)C(C)CNC2=S)cc1 (stereo not drawn)	-9%	-13	-10	x	x	x	x
C(=N\Nc1cc(N2CCCCC2)ncn1)/c1ccco1	-3%	-2.5	-9	x	x	0.4	-1.3
COc1ccccc1N=Nc1c(C)[nH]n(-c2ccccc2)c1=O	x	-2.0	-2	3.8	0.74	2.1	0.2
CN(CC(=O)Nc1ccccc1C(F)(F)F)C(=O)Cc1ccccc1F	x	1.0	0	6.0	0.65	-0.5	-1.1
Cc1ccc(NC(=O)C2(C)Cc3ccccc3C(=O)O2)cc1 (stereo not drawn)	-10%	3.4	-6	0.3	0.65	-5.5	-0.1
O=C(c1ccc(Cl)c(S(=O)(=O)N2CCCCCC2)c1)N1CCN(c2ccccn2)CC1	8%	3.4	-5	2.5	0.7	2.2	0.8
O=C1OCCC1Sc1nnc(-c2ccc3c(c2)OCO3)o1 (stereo not drawn)	-4%	0.0	-3	2.6	0.69	-0.8	-0.6
Cc1ccccc1Nc1nc(N)nc(COC(=O)c2ccccc2)n1	16%	-3.0	-2	0.5	0.7	0.9	-0.1
O=C(c1cc2nc(-c3ccc(Cl)cc3)cc(C(F)(F)F)n2n1)N1CCOCC1	-2%	-2.3	0	-24	0.67	-8.3	-0.3
CCN1CCN(CCNC(=O)c2cn(C(C)c3ccccc3F)nn2)CC1 (stereo not drawn)	6%	-1.9	-5	0.4	0.71	-0.6	-0.1
O=C(O)CCC(=O)NN1C(=O)c2ccccc2NC1c1ccco1 (stereo not drawn)	30%	0.1	-1	-215	0.71	-0.5	0.3
CC(=O)NCCc1cnc[nH]1	x	2.6	-2	1.6	0.76	8.1	0.0
CC(C(=O)Nc1ccc(S(=O)(=O)N2CCCC2)cc1)N1CCN(C(=O)c2ccco2)CC1 (stereo not drawn)	12%	-0.4	0	-0.7	0.72	-3.3	-0.9
O=c1oc(-c2ccccc2)nc2sc3c(c12)CCC3	u	-14	-2	-5.7	0.71	2.2	-6.2
CCOC(=O)c1cccc(C(=O)Oc2ccccc2)n1	21%	-1.2	-2	1.7	0.69	-5.5	0.9
CCCCCCCCCCS(=O)(=O)N/N=C/c1ccccc1OC	u	1.2	2	x	x	1.3	-0.6
CN1CCC(N(C)C(=O)/C=C/c2cn(-c3ccccc3)nc2-c2cccs2)CC1	15%	2.2	19	-85	0.68	3.7	-0.1
CN(C)c1ccc(C2N(c3ccc(Cl)cc3)C(=O)C3CCCN32)cc1 (stereo not drawn)	5%	3.4	6	8.4	0.74	-5.9	1.3
O=C(CN1CCN(CC(=O)c2ccc(F)cc2)CC1)Nc1ccccc1Cl	1%	-0.9	-4	3.7	0.73	-1.7	0.0
O=C(N/N=C\C=C\c1ccco1)c1cncc(Br)c1	u	-0.9	13	x	x	-1.6	0.1
CNC(=O)c1c[nH]c2ccc(S(=O)(=O)Nc3cccc(SC)c3)cc2c1=O	9%	-3.9	2	4.9	0.65	-0.3	0.2
O=C(CN1C(=O)/C(=C/c2c(F)cccc2Cl)Oc2ccccc21)NCc1ccco1	-6%	x	x	-419	0.74	-6.4	-0.1
O=[N+]([O-])c1cc(Cl)ccc1NCCc1ccccn1	x	2.5	-3	6.6	0.64	-7.1	-0.7
COc1cccc(CNC(=O)CCC(=O)N2CCSc3ccccc32)c1OC	x	0.8	4	0.8	0.65	-4.8	-1.0
O=C(Nc1ccc(Nc2ccccc2)cc1)C(Cl)(Cl)Cl	12%	-5.0	4	4.4	0.7	-10	-0.3
O=C(c1ccccc1Cl)N(Cc1ccc(Br)cc1)N1C(=O)CCC1=O	x	4.0	-5	1.8	0.66	-2.7	0.6
COc1cccc(-c2sc3ccc(OC)cc3c2-c2ccc(O)cc2)c1	x	-0.4	-5	x	x	1.8	0.0
COC(=O)Cc1nc2c(N)nc(N)nc2[nH]c1=O	-3%	-1.2	-4	i	0.67	x	x
CC(Oc1ccccc1)C(=O)OCC(=O)NC(=O)NCc1ccco1 (stereo not drawn)	21%	0.1	1	-4.0	0.73	1.4	0.5
Cc1ccc2nc(-c3ccccn3)c(NC3CCCC3)n2c1	-6%	0.5	4	-1.2	0.67	7.1	-0.5
Cc1cc(C(=O)OCC(=O)N2CC(=O)Nc3ccccc32)c(C)n1-c1ccc(F)cc1	13%	4.2	1	1.4	0.68	-2.9	0.0
Cc1ccc(-c2noc(CN(C(=O)CCCN3C(=O)c4ccccc4C3=O)C(C)C)n2)cc1	x	-3.0	-5	2.0	0.7	-0.6	0.7
COc1ccc(Br)cc1CN1CCN(S(=O)(=O)Cc2ccccc2)CC1	x	-2.2	-5	-1.6	0.68	6.8	0.1
COCC1CCN(C(=O)CCc2nnc(C3(c4ccc(Cl)cc4)CCC3)o2)CC1	1%	1.2	-8	1.6	0.66	2.0	0.1
O=C(CN1C(=O)NC(CCc2ccccc2)C1=O)Nc1cccc(Br)c1 (stereo not drawn)	x	0.4	-1	-0.7	0.71	0.0	1.7
Cc1cn(C(=O)c2ccccc2)c(=S)n1-c1ccc(Br)cc1	0%	-0.4	9	-83	0.69	-4.5	-0.3
CC(C)C[C@@]12C(=O)N(c3cccc(Cl)c3)C(=O)N1[C@H](c1ccc(F)cc1)[C@@H]1C(=O)N(C3CCCCC3)C(=O)[C@@H]12	x	-4.7	-3	3.1	x	0.1	-0.5
Cc1nc(NC(=O)c2cccs2)ccc1Br	-1%	-0.8	-12	-0.7	0.65	-1.4	1.1
Cc1cc(C(=O)NCC(=O)OCC(=O)N(C2CCCCC2)C2CCCCC2)ccc1[N+](=O)[O-]	-1%	0.6	-5	0.0	0.7	-3.9	0.7
Cc1cc(C)cc(C(=O)N2CCC(CCC(=O)NC3CC3)CC2)c1	4%	1.9	-3	-0.4	0.66	5.1	-0.6
CC/C(=C\c1oc2cc3ccccc3cc2[n+]1CC)Nc1ccccc1	u	51*	-508	13	0.63	-3.1	0.0
COC(=O)c1sccc1NC(=O)CC1C(=O)NCCN1C(=O)c1ccc(N(C)C)cc1 (stereo not drawn)	x	0.0	-4	7.8	0.71	-0.2	0.0
O=C(Cn1cc(SCc2cccc(Cl)c2)c2ccccc21)N1CCOCC1	x	-1.6	-1	3.5	0.66	-1.7	-0.2
CC(C)(C)C1CCc2onc(C(=O)Nc3ccc(F)cc3F)c2C1 (stereo not drawn)	3%	2.1	-3	6.1	0.68	-3.6	1.9
CCOC(=O)Cc1ccc2sc(-c3ccccc3)nc2c1	x	-2.0	-1	5.0	0.67	-1.5	-8.3
COc1ccc(CCNC(=O)C2CCN(S(=O)(=O)N3CC(C)CC(C)C3)CC2)cc1OC (stereo not drawn)	5%	2.4	0	3.4	0.7	6.2	0.5
COc1cc2c(cc1NC(=O)C(c1ccccc1)c1ccccc1)CCCC2	2%	-3.0	1	4.8	0.77	-2.7	0.3
CCOc1ccc(NC(=O)CN2C(=O)NC(CCSC)C2=O)cc1 (stereo not drawn)	-3%	0.6	-4	3.5	0.72	1.8	-0.1
Cn1c(=O)c2c(SCc3ccccn3)nc(CC(C)(C)C)nc2n(C)c1=O	-3%	0.8	-12	5.1	0.76	4.2	-0.1
Cc1ccc(S(=O)(=O)NCC(C)n2cncn2)cc1C (stereo not drawn)	x	3.5	-5	2.1	0.66	-0.5	-0.6
COC(=O)c1ccc(N2C(=O)CC(N(C)Cc3ccccc3)C2=O)cc1 (stereo not drawn)	4%	-5.5	-1	-0.8	0.71	-4.4	0.7

New compounds follow.
Structure	Vif TR-FRET	HNF4A DNA FP	Beta2AR agonist	UCH37 inh	Ecoli growth	LANA-H2B inh	A1 inh
O=C(COC(=O)c1cccc([N+](=O)[O-])c1)NC1CCCC1	-1%	1.5	-6	2.3	0.71	-3.7	0.3
CCCCOP(=O)(OCCCC)C(O)c1ccc(Br)cc1 (stereo not drawn)	2%	1.8	1	-1.1	0.69	-5.9	0.2
CC(=O)NC(c1ccc(Cl)cc1)c1ccc2cccnc2c1O (stereo not drawn)	x	-0.6	2	1.9	0.53	x	x
CCc1ccc(N(C(=O)CNC(=O)c2ccco2)C(C(=O)NC2CCCC2)c2cccnc2)cc1 (stereo not drawn)	x	1.2	-12	7.0	0.65	-1.0	0.2
Fc1ccc(C2CCCN2Cc2nc(CC3CC3)no2)cc1 (stereo not drawn)	1%	1.9	-4	-0.2	0.67	-4.0	-0.4
CCOC(=O)C(=O)N1CCC(C(=O)OCC)CC1	3%	1.7	-2	2.1	0.67	3.4	0.0
CC(NC(=O)C1CCC(CNS(=O)(=O)c2ccc3c(c2)C(C)(C)C(=O)N3C)CC1)c1ccccc1 (stereo not drawn)	x	0.5	4	6.6	0.74	-2.7	-0.4
NNC(=O)c1cccc(COc2ccc3c(c2)CCC3)c1	x	0.6	-1	1.8	0.65	0.2	2.0
COCC(=O)Nc1cc(C)cn(Cc2ccc(F)cc2)c1=O	-10%	4.7	-3	5.1	0.66	1.8	1.4
O=[N+]([O-])c1cc([N+](=O)[O-])c(Oc2c(Cl)cccc2Cl)cc1NN1CCCCC1	x	0.3	-4	5.2	0.71	-1.2	0.6
O=S1(=O)C=C(SCc2ccc(Cl)c(Cl)c2)Nc2ccccc21	23%	1.0	-1	6.5	0.76	5.3	-0.9
O=C(Oc1ccc(C(=S)N2CCOCC2)cc1Br)c1cc(Cl)ccc1Cl	-7%	-3.0	10	6.6	0.74	1.5	0.8
COP(=O)(CN(Cc1ccccc1)C(=S)Nc1c(C)cccc1C)OC	x	3.2	-2	5.2	0.74	-4.5	-0.2

An excerpt of these results, with each value named.
SMILES: O=[N+]([O-])c1cc([N+](=O)[O-])c(Oc2c(Cl)cccc2Cl)cc1NN1CCCCC1
  Vif TR-FRET: x
  HNF4A DNA FP: 0.3
  Beta2AR agonist: -4
  UCH37 inh: 5.2
  Ecoli growth: 0.71
  LANA-H2B inh: -1.2
  A1 inh: 0.6
SMILES: Fc1ccc(C2CCCN2Cc2nc(CC3CC3)no2)cc1 (stereo not drawn)
  Vif TR-FRET: 1%
  HNF4A DNA FP: 1.9
  Beta2AR agonist: -4
  UCH37 inh: -0.2
  Ecoli growth: 0.67
  LANA-H2B inh: -4.0
  A1 inh: -0.4
